StopGo reporter: lowers the luciferase signal of an FMDV 2A StopGo reporter. 410,000 compounds, 1.2% hits. human cells with a luciferase reporter of 2A StopGo recoding; control for the full effect not named in the record. Potency, µM (top dose mostly 57.9 µM), for the others: at the top dose signal change, negative = less light; active = well fitted falling curve with a large enough effect; inconclusive = small, poorly fitted or top-dose-only effect; inactive = no such curve, though single readings can be large or run the other way; tested in HEK293T cells; also: nearly all actives have a fitted effect of over 45% in size; luciferase light after 4 h
Active calls of the source: *; ? = inconclusive; & = joins results of further samples; [ ] = remark or other dose. % is scaled to controls: 0 for no effect and ±100 for the full control effect; potency is read from the fitted curve at half-maximal effect.

The opening 16 compounds (preview)
COc1cc(-c2cc(C)c3cccc(OC)c3n2)cc2c1OCCN(C(=O)CC1NC(=O)c3ccccc31)C2 (stereo not drawn)
  StopGo reporter: -11%

Cn1cnc2nc(NCCO)nc(NCc3ccccc3)c21
  StopGo reporter: -14%

CC(C)c1c(C(=O)NCC2(N3CCCCC3)CCCC2)cnn1-c1nccc(-c2ccco2)n1
  StopGo reporter: 1%

COc1ccccc1N1CCN(c2nc(CNC(=O)c3cc(C)oc3C)nc3ccccc23)CC1
  StopGo reporter: -23%

CC(=O)c1ccc(C(=O)NCC2Cc3cccc(-c4ncccn4)c3O2)cc1 (stereo not drawn)
  StopGo reporter: 6%

Cc1ccccc1C1(CC(=O)N2CCCCC2C)CC(=O)N(Cc2cccnc2)C1=O (stereo not drawn)
  StopGo reporter: 6%

CCC(C(N)=O)N1CCCC1=O (stereo not drawn)
  StopGo reporter: -28%

O=C(c1cnsn1)N1CCOc2ccc(C(O)C(c3ccccc3)c3ccccc3)cc2C1 (stereo not drawn)
  StopGo reporter: -18%

CC(C)n1nc(Cc2cccc3ccccc23)c(C#N)c1N
  StopGo reporter: 0%

CC(O)[C@@H](N)C(=O)O (stereo partly drawn)
  StopGo reporter: -4%

COc1ccc2c(c1)CCc1cnc(-n3ncc(C(=O)N(C)CC4CCCN(C)C4)c3C)nc1-2 (stereo not drawn)
  StopGo reporter: -6%

CCC1CN(CCNC(=O)c2cccnc2OC)Cc2cc(OC)ccc2O1 (stereo not drawn)
  StopGo reporter: 11%

Cc1cc(C(=O)Nc2ccccc2-c2nc(CNC(=O)c3sc(C)nc3C)c(C)o2)c(C)o1
  StopGo reporter: 1%

COc1ccc(-c2cccc3c2OC(CNC(=O)c2ccc4c(c2)OCO4)C3)nn1 (stereo not drawn)
  StopGo reporter: 31%[activator]

CC(=O)NCC(=O)NCC1Cc2cc(C)cc(-c3ccccn3)c2O1 (stereo not drawn)
  StopGo reporter: -5%

COc1cc(OC)cc(C(=O)NCC2Cc3cccc(-c4nc(C)cnc4C)c3O2)c1 (stereo not drawn)
  StopGo reporter: -12%

The listing, from the start:
COc1cc(-c2cc(C)c3cccc(OC)c3n2)cc2c1OCCN(C(=O)CC1NC(=O)c3ccccc31)C2 (stereo not drawn)
  StopGo reporter: -11%

Cn1cnc2nc(NCCO)nc(NCc3ccccc3)c21
  StopGo reporter: -14%

CC(C)c1c(C(=O)NCC2(N3CCCCC3)CCCC2)cnn1-c1nccc(-c2ccco2)n1
  StopGo reporter: 1%

COc1ccccc1N1CCN(c2nc(CNC(=O)c3cc(C)oc3C)nc3ccccc23)CC1
  StopGo reporter: -23%

CC(=O)c1ccc(C(=O)NCC2Cc3cccc(-c4ncccn4)c3O2)cc1 (stereo not drawn)
  StopGo reporter: 6%

Cc1ccccc1C1(CC(=O)N2CCCCC2C)CC(=O)N(Cc2cccnc2)C1=O (stereo not drawn)
  StopGo reporter: 6%

CCC(C(N)=O)N1CCCC1=O (stereo not drawn)
  StopGo reporter: -28%

O=C(c1cnsn1)N1CCOc2ccc(C(O)C(c3ccccc3)c3ccccc3)cc2C1 (stereo not drawn)
  StopGo reporter: -18%

CC(C)n1nc(Cc2cccc3ccccc23)c(C#N)c1N
  StopGo reporter: 0%

CC(O)[C@@H](N)C(=O)O (stereo partly drawn)
  StopGo reporter: -4%

COc1ccc2c(c1)CCc1cnc(-n3ncc(C(=O)N(C)CC4CCCN(C)C4)c3C)nc1-2 (stereo not drawn)
  StopGo reporter: -6%

CCC1CN(CCNC(=O)c2cccnc2OC)Cc2cc(OC)ccc2O1 (stereo not drawn)
  StopGo reporter: 11%

Cc1cc(C(=O)Nc2ccccc2-c2nc(CNC(=O)c3sc(C)nc3C)c(C)o2)c(C)o1
  StopGo reporter: 1%

COc1ccc(-c2cccc3c2OC(CNC(=O)c2ccc4c(c2)OCO4)C3)nn1 (stereo not drawn)
  StopGo reporter: 31%[activator]

CC(=O)NCC(=O)NCC1Cc2cc(C)cc(-c3ccccn3)c2O1 (stereo not drawn)
  StopGo reporter: -5%

COc1cc(OC)cc(C(=O)NCC2Cc3cccc(-c4nc(C)cnc4C)c3O2)c1 (stereo not drawn)
  StopGo reporter: -12%

O=C(c1cccc(Cn2cccn2)c1)N1CCOc2c(cc(-c3csc4ccccc34)cc2OC2CCOC2)C1 (stereo not drawn)
  StopGo reporter: -19%

COc1ccc(Cl)cc1Nc1nc(NCCO)nc(N2CCCCC2)n1
  StopGo reporter: -21%

CCC1(C2CCN(C(=O)c3cc(C)cc(C)c3)CC2)NC(=O)N(CCc2scnc2C)C1=O (stereo not drawn)
  StopGo reporter: -9%

O=C1Nc2cc(Cl)ccc2Nc2cscc21
  StopGo reporter: -18%

Cc1ccc(C(=O)Nc2cccc(-c3nc(CNC(=O)c4cccc(C)c4C)c(C)o3)c2)s1
  StopGo reporter: -25%

CCOC(=O)N1CCN(Cc2ccc3c(c2)CN(C(=O)c2cc(-c4ccccc4)on2)CCO3)CC1
  StopGo reporter: 28µM*

CC1(C)c2[nH]c3ccccc3c2C[C@H]2C(=O)N(Cc3cccc(F)c3)C(=O)N21
  StopGo reporter: ?

COC(=O)C1CCN(Cc2ccc3c(c2)CN(C(=O)c2ccnn2C)CCO3)CC1
  StopGo reporter: 2%

C[C@H](CCC(=O)NCC(=O)O)C1CC[C@H]2[C@H]3C(C[C@H](O)[C@]12C)[C@@]1(C)CC[C@@H](O)C[C@H]1C[C@H]3O (stereo partly drawn)
  StopGo reporter: -4%

CC(O)(COc1ccccc1)c1ccc2c(c1)CN(Cc1cccc3ncccc13)CCO2 (stereo not drawn)
  StopGo reporter: -24%

COc1ccc(F)c(CN2CCC3(CCC(CNC(=O)c4cc(C)nn4C)O3)CC2)c1 (stereo not drawn)
  StopGo reporter: -24%

Cc1ccc2[nH]c(C(=O)NCc3nc(-c4cccc(NC(=O)c5cc(C)oc5C)c4)oc3C)cc2c1
  StopGo reporter: 2%

CCC1CN(CCNC(=O)c2ccc(N3CCOCC3)cc2)Cc2cc(OC)ccc2O1 (stereo not drawn)
  StopGo reporter: -5%

CC[C@@H](C)[C@@H](N)C1=N[C@H](C(=O)N[C@@H](CC(C)C)C(=O)N[C@@H](CCC(=O)O)C(=O)N[C@@H](C(=O)N[C@@H]2CCCCNC(=O)[C@@H](CC(N)=O)NC(=O)[C@@H](CC(=O)O)NC(=O)[C@@H](Cc3cnc[nH]3)NC(=O)[C@@H](Cc3ccccc3)NC(=O)[C@@H]([C@H](C)CC)NC(=O)[C@@H](CCCN)NC2=O)[C@@H](C)CC)CS1
  StopGo reporter: -8%

COc1ccc2c(c1)-c1nc(-n3ncc(C(=O)N(C)CCO)c3C3CC3)ncc1CC2
  StopGo reporter: 35%[activator]

COc1ccc(CCCOC(Cn2ccnc2)c2ccc(OC)cc2)cc1 (stereo not drawn)
  StopGo reporter: 0%&-1%

N[C@](CC1c2ccccc2Oc2ccccc21)(C(=O)O)[C@H]1C[C@@H]1C(=O)O
  StopGo reporter: -13%

Cc1ncc2c(c1CNC(=O)/C=C/c1cccs1)CCN(C(=O)C1CC(=O)OC13CCCCC3)C2 (stereo not drawn)
  StopGo reporter: -1%

COc1ccccc1C1CN(Cc2c(C)nc3sccn23)Cc2ccccc2O1 (stereo not drawn)
  StopGo reporter: 7%

CCC(COC)NC(=O)c1cnn(-c2ncc3c(n2)-c2ccccc2CCC3)c1C (stereo not drawn)
  StopGo reporter: -6%

COc1cc(-c2cc[n+](C)cc2)ccc1O
  StopGo reporter: -4%

COc1ccc2c(c1)NC(=O)C2CC(=O)N1CCOc2c(cc(-c3cnc4ccccc4c3)cc2OC)C1 (stereo not drawn)
  StopGo reporter: -24%

Cc1nc(C)c(C(=O)N2CCc3c(cnc(C)c3CNC(=O)c3cncs3)C2)s1
  StopGo reporter: -8%

O=C(c1cn(CC2CCCN(Cc3cc4ccccc4s3)C2)nn1)N1CCCC1 (stereo not drawn)
  StopGo reporter: -5%

COC(=O)c1cccc(C(=O)N2CCc3c(C(=O)OC)c(OCc4ccccn4)cc(=O)n3CC2)c1
  StopGo reporter: -8%

COCC(C)NCc1cc2ccc(OC)cc2nc1N1CCN(c2ccc(F)cc2)CC1 (stereo not drawn)
  StopGo reporter: -23%

CNC(=O)[C@@H]1C[C@H](Sc2nc3ccccc3[nH]2)CN1Cc1ccccc1C(F)(F)F
  StopGo reporter: -9%

COc1cc(=O)n2c(c1C(=O)N(C)Cc1nonc1C)CCN(Cc1cc(F)ccc1F)CC2
  StopGo reporter: -4%

COC(=O)c1c(OCc2cccnc2)cc(=O)n2c1CCN(C(=O)c1ccc(OC)c(F)c1)CC2
  StopGo reporter: -5%

COc1cc(=O)n2c(c1C(=O)NCc1ccco1)CCN(Cc1c(F)cccc1F)CC2
  StopGo reporter: -17%

N[C@@H](CCS(=O)O)C(=O)O
  StopGo reporter: 5%&-19%

CCC1C(=O)NCCN1Cc1ccc2c(c1)CN(Cc1ccc(F)c(OC)c1)CCO2 (stereo not drawn)
  StopGo reporter: -17%

CCOC(=O)N1CCN(C(=O)c2ccc(-c3ccccc3OC)nc2N2CCC(N3CCCC(CO)C3)CC2)CC1 (stereo not drawn)
  StopGo reporter: -1%

CN(C)CCCN1c2ccc([N+](=O)[O-])cc2CCc2cc([N+](=O)[O-])ccc21
  StopGo reporter: -11%

COc1cccc(Cc2nc3cccnc3n2C2CCN(Cc3ccc(C)s3)CC2)c1
  StopGo reporter: 2%

CC(NC(=O)c1ccco1)c1nnc2n1CCN(Cc1cccc(Cl)c1)CC2 (stereo not drawn)
  StopGo reporter: -1%

CCC1CN(Cc2cn[nH]c2-c2ccc(F)cc2)Cc2cc(OC)ccc2O1 (stereo not drawn)
  StopGo reporter: ?

COc1ccc(C(=O)NCCN2Cc3cc(C)ccc3OC(C)C2)c(OC)n1 (stereo not drawn)
  StopGo reporter: 5%

Nc1ncnc2c1nc(Br)n2[C@@H]1O[C@H]2COP(=O)(O)O[C@@H]2[C@@H]1O
  StopGo reporter: -10%

Cc1c(C(=O)NCCN2CCC(c3ccccc3)CC2)cnn1-c1nccc(-c2cccs2)n1
  StopGo reporter: -10%

c1ccc(Cc2nnc3n2CCN(Cc2cnc(-c4ccccc4)s2)CC3)cc1
  StopGo reporter: -19%

COc1cccc(-c2cnc(-c3ccncc3)nc2C2CCN(C(=O)Cc3csc(C)n3)CC2)c1
  StopGo reporter: -17%

COC(C/C=C/C=C/CC/C=C\CC(C)/C=C\C(=C/C(=O)O)CC(=O)O)/C(C)=C\C=C(/C)C(=O)O (stereo not drawn)
  StopGo reporter: 3%[6.7 µM]

COC(=O)c1c(OCc2ccccn2)cc(=O)n2c1CCN(Cc1ccc3nsnc3c1)CC2
  StopGo reporter: -5%

Cc1cnc(C)c(-c2ccc3c(c2)CC(CNC(=O)Cc2c(C)[nH]c4ccccc24)O3)n1 (stereo not drawn)
  StopGo reporter: -24%

COC(=O)[C@@H]1CCCN1C(=O)c1c(OC)cc(=O)n2c1CCN(Cc1cc(OC)ccc1F)CC2
  StopGo reporter: 3%

Cc1ncc2c(c1CNC(=O)c1ccc3c(c1)OCO3)CCN(C(=O)c1ccoc1)C2
  StopGo reporter: 3%

COc1ccc(CCN(C)C(=O)c2cnn(-c3nccc(-c4ccc(C)o4)n3)c2C)cc1OC
  StopGo reporter: 32%[activator]

COc1cccc(C2(CC(=O)N3CCC(c4nc5ccc(F)cc5[nH]4)CC3)CC(=O)N(C)C2=O)c1 (stereo not drawn)
  StopGo reporter: 9%

Cc1nn(C)cc1CN1CCOc2ccc(C(C)(O)COc3ccccc3)cc2C1 (stereo not drawn)
  StopGo reporter: -10%

Cc1cc(-c2ccnc(-n3ncc(C(=O)NCC4COCCO4)c3C3CC3)n2)c(C)s1 (stereo not drawn)
  StopGo reporter: 47%[activator]

N[C@H](C(=O)O)[C@@H]1CC(Cl)=NO1
  StopGo reporter: -17%

Cc1cccc(CNC(=O)c2cnn(-c3ncc(C)c(-c4ccc(F)cc4)n3)c2C)n1
  StopGo reporter: -10%

CN1CCCC(CN(C)C(=O)c2cnn(-c3nccc(-c4ccccc4C(F)(F)F)n3)c2C2CC2)C1 (stereo not drawn)
  StopGo reporter: -13%

CC(C(=O)OC1CC2CCC(C1)N2C)c1ccc(Br)cc1 (stereo not drawn)
  StopGo reporter: -2%

Cc1nc(CC(=O)N2CCC(n3c(C4CCC4)nc4cccnc43)CC2)cs1
  StopGo reporter: -18%

COC(=O)c1cc(CNC(=O)c2ccncc2)cc(NC(=O)c2ccccc2Cl)c1
  StopGo reporter: -1%

Cc1cnc(C)c(-c2ccc(F)c3c2OC(CNC(=O)Cc2c(F)cccc2F)C3)n1 (stereo not drawn)
  StopGo reporter: -16%

CC(C)c1c(C(=O)N(C)C2CCN(C)CC2)cnn1-c1nccc(-c2ccco2)n1
  StopGo reporter: -4%

Cc1cc(C)c(C(=O)NCc2nc(-c3cccc(NC(=O)C4CCCN(C)C4)c3)oc2C)[nH]1 (stereo not drawn)
  StopGo reporter: -6%

CC(C)(C)Oc1ccccc1Nc1nc(NCCO)nc(N2CCCC2)n1
  StopGo reporter: -23%

COc1cc(-c2cccc(OC)c2OC)cc2c1OCCN(Cc1cn[nH]c1-c1ccc(Cl)cc1)C2
  StopGo reporter: -17%

Cc1cc(CNC(=O)c2cnn(-c3nccc(-c4ccc5c(c4)OCO5)n3)c2C2CC2)on1
  StopGo reporter: 30%[activator]

O=S(=O)(NCc1nc(N2CCCC2)c2cc(Cl)ccc2n1)c1ccccc1OC(F)(F)F
  StopGo reporter: -5%

Cc1nc(C(C)NC2CCN(c3cccc(NC(=O)c4ccncc4)c3)CC2)cs1 (stereo not drawn)
  StopGo reporter: 11%

Cc1cnc(-n2ncc(C(=O)N(CCO)C(C)C)c2-c2cccs2)nc1-c1ccc(F)cc1
  StopGo reporter: 22%

O=C1CSC(c2ccccc2Cl)c2cc(Cl)ccc2N1 (stereo not drawn)
  StopGo reporter: 8%[97.4 µM]

CCC1CN(CCNC(=O)c2scc3c2OCCO3)Cc2cc(OC)ccc2O1 (stereo not drawn)
  StopGo reporter: 27%

COC(=O)c1ccc(CN2CCOc3ccc(C(O)c4cccnc4)cc3C2)cc1 (stereo not drawn)
  StopGo reporter: -26%

Source: PubChem BioAssay (National Center for Advancing Translational Sciences (NCATS))

Some of the compounds tested; count on the stated rates, not on these rows.
